Screening results: PubChem, Broad Institute
Ecoli rRNA inh: selective bacterial rRNA inhibition in E. coli. E. coli WT GFP vs humanized-ribosome RFP mutants, fluorescence, 24 h; stronger effect = lower value; DMSO median 0, no signal -100. GFP signal change (wild-type ribosome), % (no concentration beside the values). 1.6% of 350,000 active. AID 720706;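 active = significant combined selectivity score with lowered wild-type GFP, culture density cut under 30%, mutant RFP and density less affected; inactive = any of these conditions unmet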; also: one replicate is shown; some compounds called inactive have numbers as strong as hits
FGF22 binding: shifts melting point of recombinant human FGF22; recombinant FGF22 thermal shift, SYPRO orange fluorescence; percent of sucrose octasulfate shift, DMSO zero; 1.5% of 340,000 active; calls only at 9.99 µM; AID 651658;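 active = melting point raised past a set limit in the mean and every replicate; three in four hits are not shown here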
Target sequence (Q9HCT0 whole entry, looked up): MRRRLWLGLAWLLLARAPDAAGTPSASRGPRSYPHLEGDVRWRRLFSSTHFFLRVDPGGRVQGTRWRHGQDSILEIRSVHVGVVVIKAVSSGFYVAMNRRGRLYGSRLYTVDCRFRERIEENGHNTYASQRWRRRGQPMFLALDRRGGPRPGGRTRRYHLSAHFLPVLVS
MLL AF4-AF9 inh: inhibitors of human MLL-AF4/AF9 interaction; P42568; AlphaScreen, biotin-AF4 peptide binding to FLAG-AF9; inhibition, % at 10 µM; 0.47% of 350,000 active; AID 651704;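 active = every replicate reaching a set inhibition limit, whatever the replicate mean, cut at about 25% in these data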;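 also: 0% = plate neutral control median and 100% = total signal loss; the record names both 10 and 1 µM as test concentration; the first replicate is given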
Target sequence (P42568 whole entry, looked up): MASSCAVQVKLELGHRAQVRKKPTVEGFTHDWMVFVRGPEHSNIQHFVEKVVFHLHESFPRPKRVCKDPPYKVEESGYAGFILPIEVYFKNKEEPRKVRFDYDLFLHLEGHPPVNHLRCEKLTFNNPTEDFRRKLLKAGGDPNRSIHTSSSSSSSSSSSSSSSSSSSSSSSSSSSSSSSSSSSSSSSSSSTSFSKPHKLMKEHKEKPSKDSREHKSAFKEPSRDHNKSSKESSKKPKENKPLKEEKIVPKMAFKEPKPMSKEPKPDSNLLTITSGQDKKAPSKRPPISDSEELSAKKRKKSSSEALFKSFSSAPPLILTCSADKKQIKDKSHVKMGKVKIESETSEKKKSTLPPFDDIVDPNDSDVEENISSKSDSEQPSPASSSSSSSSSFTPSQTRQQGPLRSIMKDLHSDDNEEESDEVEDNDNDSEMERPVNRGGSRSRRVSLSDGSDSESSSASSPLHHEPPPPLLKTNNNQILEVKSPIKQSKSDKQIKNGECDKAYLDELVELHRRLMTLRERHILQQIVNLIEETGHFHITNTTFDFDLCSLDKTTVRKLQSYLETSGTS
Ecoli rRNA inh OD600: further read-out of Ecoli rRNA inh, marked with its call; OD600 change, %; measured here: OD600 growth;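 optical density of the mix in the first replicate; 0 = DMSO median and -100 = no signal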
Ecoli rRNA inh RFP: also measured in Ecoli rRNA inh; calls as there; RFP signal change, %; measured here: RFP humanized mutant strains;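 first replicate; 0 = DMSO median and -100 = no signal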
* marks the source's active call; other numbers are inactive results; i = inactive; . = not tested or not shown; & = joins results of further samples.

compound	Ecoli rRNA inh	Ecoli rRNA inh OD600	Ecoli rRNA inh RFP	FGF22 binding	MLL AF4-AF9 inh
CCCCCC(=O)N1C[C@H](n2cc(C3CC3)nn2)[C@@H](O)C[C@@H]1c1ccc(Cl)cc1	-2	-12	-0.8	i	1.5
COc1cccc(-c2ccc3c(c2)O[C@@H](CN(C)C(=O)C2CCC2)[C@@H](C)CN([C@H](C)CO)S3(=O)=O)c1	-8	-15	-1.9	i	-2.0
CO[C@H]1CC[C@H]2CCOc3ccc(C#N)cc3C(=O)N(C)C[C@H](OC)[C@@H](C)C(=O)N(C)C[C@H]1O2	2	3	-4.2	i	2.5
O=C1NC(Cc2ccc(Cl)cc2)COCc2cnnn2CCC1c1ccccc1 (stereo not given)	-1	-3	-3.1	i	7.2
CNC[C@@H]1Oc2ccc(NS(=O)(=O)c3ccc(OC)cc3)cc2CC(=O)N([C@H](C)CO)C[C@H]1C	-1	10	0.6	i	-2.3
CN(C)CC(=O)N1CCCCN2[C@H](C1)[C@@H](c1ccc(/C=C/c3ccccc3)cc1)[C@@H]2CO	-2	5	0.8	i	1.2
CCCS(=O)(=O)NC(=O)C1(C)CCCN(C(=O)c2cc(C(C)(C)C)nn2C)C1 (stereo not given)	8	15	-0.9	i	1.4
COCC(=O)N1[C@H](CO)[C@H]2c3ccccc3N(C(=O)c3ccccc3F)C[C@H]21	-1	4	-1.4	i	-12
CCCNC(=O)N(C)C[C@H]1Oc2cc(C#CC(C)(C)O)ccc2S(=O)(=O)N([C@@H](C)CO)C[C@@H]1C	2	2	-0.3	i	-1.9
O=C(NCC1CC1)[C@@H]1[C@@H](CO)[C@@H]2Cn3c(cccc3=O)[C@H]1N2CCc1ccccc1	-2	7	-2.2	i	-1.5
O=C(Nc1ccc(F)cc1)N1C[C@H]2[C@@H](c3ccccc31)[C@H](CO)N2Cc1ccccc1	-3	-7	1.5	i	1.9
CCCNC(=O)CCNC(=O)[C@H](O)C(C)(C)CO	-2	7	1.9	i	-1.2
CCCc1cn(CC[C@H]2CC[C@@H](NS(=O)(=O)c3ccc(-c4ccccc4)cc3)[C@H](CO)O2)nn1	-4	-21	7.5	i	0.9
Cc1noc(C)c1NC(=O)N(C)C[C@H]1Oc2c(NC(=O)Nc3ccc4c(c3)OCO4)cccc2C(=O)N([C@@H](C)CO)C[C@@H]1C	2	6	-2.5	i	-4.0
C/C=C/c1cnc2c(c1)C(=O)N([C@@H](C)CO)C[C@@H](C)[C@@H](CN(C)C(=O)Cc1cccnc1)O2	3	13	-3.2	i	-1.2
COc1ccc(NC(=O)N[C@@H]2C=C[C@H](CC(=O)NC3CCC3)O[C@@H]2CO)cc1	1	8	-3.5	i	-1.1
CC(C)C#Cc1cnc2c(c1)C(=O)N([C@@H](C)CO)C[C@H](C)[C@@H](CN(C)C(=O)Cc1ccccn1)O2	0	3	-3.8	i	-13
O=C(N[C@@H]1CC[C@H](CCNS(=O)(=O)c2ccc(F)cc2)O[C@@H]1CO)c1cccnc1	2	5	-1.4	i	-0.4
C[C@@H]1CN([C@@H](C)CO)C(=O)c2cc(NC(=O)CCCN(C)C)ccc2O[C@@H](C)CCCCO[C@H]1CN(C)C(=O)CCCN(C)C	1	5	-3.4	i	-0.7
CCc1cnc(N2[C@H](C#N)[C@@H](c3ccc(-c4cccc(F)c4)cc3)[C@H]2CO)s1	-7	-23	-3.0	i	-8.4
C[C@@H]1CCCCO[C@@H](CN(C)Cc2ccc(Cl)c(Cl)c2)[C@@H](C)CN([C@H](C)CO)C(=O)c2cc(NC(=O)Nc3ccccc3)ccc2O1	10&1	7&19	1.1&14	i	-0.6&0.1
CCCC#Cc1ccc([C@@H]2[C@H](CO)N3CCCCN(CC4CC4)C[C@@H]23)cc1	5	6	0.5	i	15
CS(=O)(=O)Nc1ccc2c(c1)[C@@H]1C[C@H](CC(=O)NCC(F)(F)F)O[C@H](CO)[C@@H]1O2	2	9	-1.4	i	-12
Cc1ccc(S(=O)(=O)N[C@H]2CC[C@@H](CC(=O)NCCN3CCCCC3)O[C@H]2CO)cc1	1	2	-0.2	i	0.3
Cc1noc(C)c1S(=O)(=O)Nc1ccc2c(c1)C(=O)N([C@@H](C)CO)C[C@H](C)[C@H](CN(C)C(=O)NC(C)C)O2	4	-3	-0.5	i	-5.5

(further entries)
compound	Ecoli rRNA inh	Ecoli rRNA inh OD600	Ecoli rRNA inh RFP	FGF22 binding	MLL AF4-AF9 inh
C[C@H]1CN([C@@H](C)CO)C(=O)c2cccc(NC(=O)Nc3ccc(C(F)(F)F)cc3)c2O[C@H]1CN(C)C(=O)Nc1ccc(F)cc1	-9	-5	-0.4	i	5.8
COc1ccccc1CNC(=O)CN1C(=O)NC2(CCCCCCC2)C1=O	-6	-9	1.9	.	0.6
CO[C@H]1CN(C)C(=O)c2ccc(NC(=O)c3ccc(F)cc3)cc2OC[C@@H](C)NC[C@H]1C	-2	-2	-1.4	i	-0.9
CNC[C@H]1Oc2ccc(NS(=O)(=O)c3cn(C)cn3)cc2CC(=O)N([C@@H](C)CO)C[C@@H]1C	-1	9	0.7	i	-5.0
Cc1ccc(S(=O)(=O)N(C)C[C@H]2OCCCC[C@H](C)Oc3ccc(NC(=O)Nc4ccccc4)cc3C(=O)N([C@@H](C)CO)C[C@@H]2C)cc1	-1	4	0.3	i	2.9
CCCNC(=O)N(C)C[C@H]1Oc2ncc(C3=CCCC3)cc2C(=O)N([C@H](C)CO)C[C@H]1C	5	6	-4.1	i	-1.8
O=C(C[C@H]1C[C@H]2c3cc(NC(=O)C4CCOCC4)ccc3O[C@H]2[C@H](CO)O1)NCc1ccc2c(c1)OCO2	4	0	-2.0	i	-1.5
C[C@@H](NC(=O)C[C@@H]1C=C[C@H](NC(=O)Nc2ccc3c(c2)OCO3)[C@@H](CO)O1)c1ccccc1	1	-1	-2.2	i	1.2
CCCNC(=O)N(C)C[C@H]1Oc2ncc(C#CCC3CCCC3)cc2C(=O)N([C@@H](C)CO)C[C@H]1C	7	11	2.8	i	0.6
CC(C)CNC(=O)c1cccc2c(-c3cccc(C(N)=O)c3)coc12	-26	-28	-7.3	i	1.3
COC(=O)[C@@]12C[C@@H](CC(=O)NCc3cccc4ccccc34)C(=O)N(Cc3ccccc3)C1=CCC(C)(C)C2	10	10	0.3	i	1.0
CCS(=O)(=O)N1[C@H](C#N)[C@@H](c2ccc(C#CCC3CCCC3)cc2)[C@@H]1CO	-36	-66	3.4	i	0.7
Cc1noc(C)c1NC(=O)Nc1ccc2c(c1)C(=O)N([C@H](C)CO)C[C@H](C)[C@H](CN(C)CC1CC1)OCCCC[C@@H](C)O2	5	0	-0.4	i	-6.4
COc1ccc(/C=C2/SC(=O)N(CCNC(=O)C3CC(=O)N(Cc4ccccc4)C3)C2=O)cc1 (stereo not given)	1	-1	-2.8	i	-0.5
CC1(C(=O)NS(C)(=O)=O)CCN1C(=O)Cc1ccc(Cl)cc1Cl (stereo not given)	3	14	-1.4	i	-1.5
COc1ccc(S(=O)(=O)Nc2ccc3c(c2)C(=O)N([C@@H](C)CO)C[C@H](C)[C@H](CN(C)C(=O)CCCN(C)C)OCCCC[C@H](C)O3)cc1	-1	6	-0.2	i	-10
O=C(C[C@H]1C[C@H]2c3cc(NS(=O)(=O)c4ccccc4)ccc3O[C@H]2[C@H](CO)O1)N1CCOCC1	1	-10	-0.6	i	3.0
CCc1cc(-c2nnn(CCC3COCCO3)c2CC)cc(CC)c1-c1cn(Cc2ccc3ccccc3c2)nn1 (stereo not given)	1	15	-6.9	.	0.9
O=[N+]([O-])c1ccc(SN2CCCCC2)c([N+](=O)[O-])c1	-10	9	-1.5	i	3.8
O=C(c1ccccn1)N1C[C@H]2[C@@H](c3ccccc31)[C@@H](CO)N2C(=O)Cc1ccccc1	3	1	-2.3	i	-1.2
Cc1ccc(-c2cnc3c(c2)C(=O)N([C@@H](C)CO)C[C@H](C)[C@H](CN(C)C(=O)Cc2ccncc2)O3)cc1	0	11	-2.6	i	-1.2
C/C=C/c1cnc2c(c1)C(=O)N([C@H](C)CO)C[C@H](C)[C@H](CN(C)S(=O)(=O)c1cn(C)cn1)O2	3	6	-6.5	i	-6.1
C[C@H]1CN([C@@H](C)CO)C(=O)Cc2cc(NS(=O)(=O)c3ccc(F)cc3)ccc2O[C@H]1CN(C)S(=O)(=O)c1cn(C)cn1	1	1	-1.4	i	1.5
COc1ccc(S(=O)(=O)N[C@H]2CC[C@@H](CC(=O)N3CCN(c4ccccc4)CC3)O[C@@H]2CO)cc1	-4	-2	0.9	i	-0.7
CC(C)C[C@@H](CN1CCC[C@@H]1CN1C(=O)C(=O)NC[C@@H]1Cc1ccccc1)N1C[C@H](Cc2ccc(O)cc2)N(CCc2ccccc2)C(=O)C1=O	-38	-66	5.5	i	-0.7

The list goes on, starting with the last 5 of the part before.
compound	Ecoli rRNA inh	Ecoli rRNA inh OD600	Ecoli rRNA inh RFP	FGF22 binding	MLL AF4-AF9 inh
Cc1ccc(-c2cnc3c(c2)C(=O)N([C@@H](C)CO)C[C@H](C)[C@H](CN(C)C(=O)Cc2ccncc2)O3)cc1	0	11	-2.6	i	-1.2
C/C=C/c1cnc2c(c1)C(=O)N([C@H](C)CO)C[C@H](C)[C@H](CN(C)S(=O)(=O)c1cn(C)cn1)O2	3	6	-6.5	i	-6.1
C[C@H]1CN([C@@H](C)CO)C(=O)Cc2cc(NS(=O)(=O)c3ccc(F)cc3)ccc2O[C@H]1CN(C)S(=O)(=O)c1cn(C)cn1	1	1	-1.4	i	1.5
COc1ccc(S(=O)(=O)N[C@H]2CC[C@@H](CC(=O)N3CCN(c4ccccc4)CC3)O[C@@H]2CO)cc1	-4	-2	0.9	i	-0.7
CC(C)C[C@@H](CN1CCC[C@@H]1CN1C(=O)C(=O)NC[C@@H]1Cc1ccccc1)N1C[C@H](Cc2ccc(O)cc2)N(CCc2ccccc2)C(=O)C1=O	-38	-66	5.5	i	-0.7
C[C@H](CO)N1C[C@H](C)[C@H](CN(C)Cc2ccc(C(F)(F)F)cc2)Oc2ccc(NC(=O)Nc3ccc(C(F)(F)F)cc3)cc2CC1=O	4	6	-1.9	i	1.9
Cc1ccc(S(=O)(=O)NCC[C@H]2CC[C@@H](NC(=O)c3cccc(F)c3)[C@@H](CO)O2)cc1	3	5	-2.7	i	1.0
C[C@@H]1CN([C@H](C)CO)C(=O)c2c(c3ccccc3n2C)-c2ccccc2CO[C@@H]1CN(C)S(=O)(=O)c1ccc(C(F)(F)F)cc1	5	3	-1.3	i	1.1
C[C@H]1CN([C@@H](C)CO)C(=O)c2cccc(NS(=O)(=O)c3ccccc3)c2O[C@@H]1CN(C)Cc1ccncc1	-2	4	-3.6	i	0.0
CCCN(CC(=O)Nc1ccccc1C)C(=O)c1cnc(C)cn1	9	7	-0.9	i	-0.4
CCCNC(=O)[C@@H]1[C@@H](CO)[C@@H]2Cn3c(ccc(-c4cccc(F)c4)c3=O)[C@H]1N2CCC	0	8	0.0	i	-1.1
COc1ccc(NC(=O)Nc2cccc3c2O[C@@H](CN(C)C(=O)NC(C)C)[C@H](C)CN([C@H](C)CO)C3=O)cc1	0	-5	2.2	i	-3.1
N#C[C@@H]1[C@H](c2ccc(-c3ccccc3F)cc2)[C@H](CO)N1C(=O)C1CCOCC1	-5	-4	0.1	i	-0.6
CCCNC(=O)C1(C)CCCN(Cc2c3ccccc3nn2C)C1 (stereo not given)	0	3	-1.7	i	-1.7
Cc1ccc(-c2cnc3c(c2)C(=O)N([C@H](C)CO)C[C@@H](C)[C@@H](CN(C)C(=O)c2ccncc2)O3)cc1	6	-9	0.5	i	-3.4
N#Cc1cc2cc(Cl)ccc2[nH]c1=O	-3	-3	-3.4	i	-0.2
COCC#Cc1ccc2c(c1)O[C@@H](CN(C)C(=O)CC1CC1)[C@@H](C)CN([C@H](C)CO)S2(=O)=O	-5	-9	-1.5	i	-3.4
Cn1ncc2c(N)nc(NCCO)nc21	14	10	0.8	i	-4.4
COC(OC)C1(CCc2ccccc2)NC(=O)NC1=O (stereo not given)	4	5	-0.5	i	-4.8
COc1ccc(S(=O)(=O)N2C[C@@H](O)COC[C@@H]3O[C@H](CC(=O)N[C@@H]4CCN(Cc5ccccc5)C4)CC[C@H]32)cc1	2	5	-0.3	i	2.0
C[C@H](CO)N1C[C@H](C)[C@H](CN(C)C(=O)NC2CCCCC2)OCCCC[C@H](C)Oc2ccc(NS(=O)(=O)c3ccc(Cl)cc3)cc2C1=O	1	3	0.1	i	-1.5
O=C(c1ccc2c(c1)OCO2)N1C[C@@H]2[C@H](c3ccccc31)[C@@H](CO)N2C(=O)CC1CC1	4	4	-1.5	i	-1.8
COc1ccccc1C#Cc1ccc([C@H]2[C@H]3CN(CCC(F)(F)F)CCCCN3[C@H]2CO)cc1	-57	-72	-3.0	i	3.7
C[C@@H]1CN([C@H](C)CO)S(=O)(=O)c2ccc(C#Cc3ccncc3)cc2O[C@H]1CN(C)C(=O)Nc1ccc2c(c1)OCO2	-11	-8	-3.7	i	-0.5

Not all compounds are listed; the hit share may differ from the screen's.
